Screens deposited in PubChem by Fisher Drug Discovery Resource Center.
NPYLR7 ag – agonists of mosquito NPYLR7 receptor, primary screen, cell-based, Aedes aegypti, calcium fluorescence, mosquito biting behavior | hit rate 0.15% among 270,000 | HEK293T NPYLR7/Galpha15, GCaMP6s calcium fluorescence | activation, % at 10 µM; in the data active means activation above about 40%;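 further: 0% = vehicle and 100% = reference agonist at the receptor; some compounds past the cut are filed as inactive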
NPYLR7 ag max-min – second read-out of NPYLR7 ag, no call of its own (marks repeat the call); activation, %; measured here: Max-Min RFU normalised activation; some inactives read as strong as hits;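 span of the calcium signal over five minutes; 0% = vehicle and 100% = native peptide agonist; compound fluorescence can raise it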
Numbers without * were called inactive. The list is partial; count on the stated rates, not on these rows.

Values run as follows: NPYLR7 ag, NPYLR7 ag max-min
1: O=C(c1cc(C2CC2)on1)N1CCCC(N2CCN(c3cccc(C(F)(F)F)c3)CC2)C1 (centres undefined)
→ 2, 0
2: C=CCOC1C[C@](OCc2cccc(C)c2)(C(=O)NCC2CC2)C[C@H]2OC(C)(C)O[C@@H]12 (some centres undefined)
→ 0, 17
3: COc1ccc(C(=O)N(CC(=O)N(CCc2c[nH]c3ccccc23)Cc2ccc(Cl)c(Cl)c2)C(C)C)cc1
→ 17, 14
4: CC(=O)c1nn(-c2ccc(F)cc2)nc1NC1CCc2ccccc21 (centres undefined)
→ 0, -1
5: CCOC(=O)c1c(SCC(=O)NC2CCCC2)nc(=O)[nH]c1C
→ 5, 10
6: CC(=O)c1c(C)[nH]c(C(=O)C(C)n2nc(C)c(S(=O)(=O)N(C)Cc3ccco3)c2C)c1C (centres undefined)
→ 3, 6
7: Cc1cccc(CN(C(=O)c2ccc(F)cc2)C2CCC(NC(=O)C3CCN(C(=O)C4CCCC4)CC3)CC2)c1 (centres undefined)
→ 0, 5
8: CC1CCN(c2ncnc3c2cnn3Cc2ccc(Cl)cc2)CC1
→ 1, -2
9: CCOC(=O)c1cc(C#N)c(SCc2csc(Cc3ccc(OC)cc3)n2)nc1C
→ 23, 29
10: CC(NC(N)=O)C(=O)NCC(C)(C)c1c(Cl)cccc1Cl (centres undefined)
→ 2, -2

Rewritten tab-delimited: four of the compounds above
nr	SMILES	NPYLR7 ag	NPYLR7 ag max-min
3	COc1ccc(C(=O)N(CC(=O)N(CCc2c[nH]c3ccccc23)Cc2ccc(Cl)c(Cl)c2)C(C)C)cc1	17	14
2	C=CCOC1C[C@](OCc2cccc(C)c2)(C(=O)NCC2CC2)C[C@H]2OC(C)(C)O[C@@H]12 (some centres undefined)	0	17
1	O=C(c1cc(C2CC2)on1)N1CCCC(N2CCN(c3cccc(C(F)(F)F)c3)CC2)C1 (centres undefined)	2	0
9	CCOC(=O)c1cc(C#N)c(SCc2csc(Cc3ccc(OC)cc3)n2)nc1C	23	29

The main list resumes, repeating the 2 entries before the break.
Values run as follows: NPYLR7 ag, NPYLR7 ag max-min
9: CCOC(=O)c1cc(C#N)c(SCc2csc(Cc3ccc(OC)cc3)n2)nc1C
→ 23, 29
10: CC(NC(N)=O)C(=O)NCC(C)(C)c1c(Cl)cccc1Cl (centres undefined)
→ 2, -2
11: O=S(=O)(c1ccc2ccccc2c1)n1cnc2ccccc21
→ 7, 2
12: CC(C)N(C(=O)CSc1nc(=O)n2ccccc2n1)C(C)C
→ 12, 9
13: Nc1ccc(Cl)c(-c2nc3cc(Cl)ccc3o2)c1
→ 1, -2
14: O=C(NCCn1nc(-c2cccs2)ccc1=O)c1ccccc1
→ 0, -2
15: Clc1ccc(Cn2ncc3c(N4CCN(CCOc5ccc(Cl)cc5)CC4)ncnc32)cc1
→ 0, -2
16: COCCn1c(C(=O)Nc2cccc(C(C)=O)c2)cc2c(=O)n(C)c(=O)n(C)c21
→ 2, 1
17: CC(C)c1nccc(CN2CCC(NS(C)(=O)=O)CC2)n1
→ 21, 13
18: O=C(Nc1ccc(C2SCC(=O)N2c2ccc3c(c2)CCC3)cc1)c1ccc(C(F)(F)F)cc1 (centres undefined)
→ 9, 7
19: CCN(CC)C(=O)Cn1cc(C(=O)N2CCC(CCc3ccccc3)CC2)nn1
→ 3, 2
20: CC(C)c1nc(C2CCCN2c2cccc(F)c2C#N)no1 (centres undefined)
→ 1, 2
21: O=C(c1csc(CSc2nnc(-c3ccco3)n2-c2ccccc2Cl)n1)N1CCN(C/C=C/c2ccccc2)CC1
→ 10, 5
22: Cc1ccc(CC(=O)NCc2ccc(OC(C)C)nc2)cc1
→ 5, 14
23: CC1(C)CC(N2CCCCC2)=CC(=NCCCN2CCOCC2)C1
→ 3, 0
24: CCNC(=O)c1coc(CN(CCN2CCOCC2)Cc2ccccc2C)n1
→ 13, 8
25: CN1CCN(C(=O)c2cc3nc(-c4ccc(F)cc4)cc(C(F)(F)F)n3n2)CC1
→ -5, -13
26: COc1ccc(-c2ccc(-n3cccc3)nc2)c(OC)c1OC
→ 22, 13
27: CCN(CC)CCn1c(N)nc2ccccc21
→ 3, 2
28: Cc1cc(-c2nnc(NC(=O)c3ccccc3)o2)n(C)n1
→ -1, 0
29: COc1ccc(C2Nc3ccccc3C(=O)N2c2ccc(F)cc2)cc1COc1ccc(NC(C)=O)cc1 (centres undefined)
→ -3, -3
30: CCN(Cc1ccc(Cl)s1)S(=O)(=O)c1cccc(C(C)=O)c1
→ -9, -10
31: CN(Cc1cccc2ncccc12)Cc1nnc(CC2CCNCC2)n1C
→ -4, -13
32: O=C(c1cccc2cc[nH]c12)N1CCN(Cc2ccc(-c3noc(-c4cccnc4)n3)cc2)CC1
→ -2, -6
33: O=C(Nn1cnc2c(cnn2-c2ccccc2)c1=O)C1CC(=O)N(c2ccc(F)cc2)C1 (centres undefined)
→ 14, 13
34: N#CC1(NC(=O)CN2CCCc3cc(OC(F)(F)F)ccc32)CCCC1
→ 1, 0
35: Cc1ccc(NC(=O)CSc2nc(C)nc3sc4c(c23)CCC4)c(C)c1
→ 0, -7
36: CCN1CCN(c2nc(Nc3ccccc3)c3nccnc3n2)CC1
→ 1, 7
37: C#CCN(CCc1ccc2c(c1)CCO2)C1CCS(=O)(=O)C1 (centres undefined)
→ 0, -2
38: CCOC(=O)c1cc(NC(=O)Nc2ccc(Br)cc2)c(C)nc1C
→ -4, -5
39: O=C(Nc1nnc(SCc2cccc([N+](=O)[O-])c2)s1)C1CCC1
→ -6, -4
40: Cn1c(-c2ccsc2)cc2c(Nc3ccc(O)cc3)nccc21
→ -6, -10

Random excerpt: seven entries already listed.
Values run as follows: NPYLR7 ag, NPYLR7 ag max-min
10: CC(NC(N)=O)C(=O)NCC(C)(C)c1c(Cl)cccc1Cl (centres undefined)
→ 2, -2
19: CCN(CC)C(=O)Cn1cc(C(=O)N2CCC(CCc3ccccc3)CC2)nn1
→ 3, 2
6: CC(=O)c1c(C)[nH]c(C(=O)C(C)n2nc(C)c(S(=O)(=O)N(C)Cc3ccco3)c2C)c1C (centres undefined)
→ 3, 6
17: CC(C)c1nccc(CN2CCC(NS(C)(=O)=O)CC2)n1
→ 21, 13
32: O=C(c1cccc2cc[nH]c12)N1CCN(Cc2ccc(-c3noc(-c4cccnc4)n3)cc2)CC1
→ -2, -6
33: O=C(Nn1cnc2c(cnn2-c2ccccc2)c1=O)C1CC(=O)N(c2ccc(F)cc2)C1 (centres undefined)
→ 14, 13
24: CCNC(=O)c1coc(CN(CCN2CCOCC2)Cc2ccccc2C)n1
→ 13, 8

Next compounds follow.
Values run as follows: NPYLR7 ag, NPYLR7 ag max-min
41: CCC(C(=O)N1CCSC1c1cccc(OCc2ccccc2)c1)c1ccccc1 (centres undefined)
→ -3, 3
42: COc1ccc(CN2CCN(c3cc(Oc4ccccc4Cl)ncn3)CC2)cc1
→ 12, 14
43: CSc1ccc(NC(=O)N2CCN(C(=O)CCN3CCc4sccc4C3c3cccc(F)c3)CC2C)cc1 (centres undefined)
→ 11, 3
44: CCc1[nH]c2c(CNC(=O)CN3CCC(N(C)C)C3)cc(C)cc2c1C (centres undefined)
→ -1, -2
45: COCCN(Cc1ccc(OC)cc1)c1c(C)nc2ccc(C(=O)Nc3cccc(OC)c3)cn12
→ -3, -9
46: Oc1cccnc1I
→ -6, -11
47: O=S(=O)(c1ccc(F)cc1)N1CCN(CCO)CC1
→ 1, -1
48: Cc1cc(C(=O)COc2ncnc3sc4c(c23)CCC4)c(C)n1-c1nccs1
→ 2, 3
49: O=C(NCc1ccco1)c1ccc(CN2CCCCC2)cc1
→ -11, -12
50: O=C1CC[C@@H](CN(Cc2ccccn2)Cc2nc(-c3ccc4c(c3)OCO4)no2)N1
→ 3, 0
51: Cc1nn(C)c2nc(C3CC3)cc(C(=O)Nc3ccc(N4CCOCC4)cc3)c12
→ 9, 6
52: CN(CCc1ccccn1)C(=O)c1cc2cc(Br)ccc2o1
→ 13, 5
53: O=S(=O)(CCn1ccnc1)Oc1ccccc1
→ 13, 10
54: COc1cccc(CN2CCC2(C)C(=O)NC(C)(C)C)c1OC (centres undefined)
→ 11, 4
55: O=C(Cn1cc(COc2ccc3ccccc3c2)nn1)NS(=O)(=O)c1ccccc1OC(F)(F)F
→ 10, 6
56: CCC(=O)Cn1nnnc1CNC(=O)OC(C)(C)C
→ 2, 1
57: O=C(NCc1c(Cl)cccc1Oc1ccccc1)c1cc(-c2ccc3c(c2)OCO3)nc2ccccc12
→ 8, 4
58: COc1ccccc1-n1c(SCc2ccc(C(=O)O)cc2)nnc1-c1ccco1
→ -2, -3
59: Cc1ccccc1-n1nc(C)c(CNC(=O)CCC(=O)c2ccc(CCCC3CC3)cc2)c1C
→ -6, -13
60: C=CCn1c(=O)c2c(nc3n2CCN3c2cccc(Cl)c2C)n(C)c1=O
→ -9, -10
61: Cc1ccc2cccc(NC(=O)N3CCN(c4ccccn4)CC3)c2n1
→ 1, 8
62: COc1ccc(S(=O)(=O)NCCC(C)C)cc1
→ 3, 9
63: Cc1ccc(C(=O)Oc2coc(CSc3nc(C)cc(C)n3)cc2=O)cc1
→ -14, -14
64: O=C(c1ccccc1C(F)(F)F)N1CC[C@@H](N2CCC(O)CC2)[C@H](O)C1
→ 6, 2
65: COc1ccc(-c2[nH]ncc2CN2CCC3(CC2)C(=O)N(C(C)C)C(=O)N3CCC(C)C)cc1
→ 10, -2
66: Clc1ccc(Cn2nnc3c(SCc4cccnc4)ncnc32)cc1
→ 13, 9
67: CCOC(=O)c1c(NC(=O)CCl)sc(C(=O)OCCOC)c1C
→ -7, -11
68: CC1CC1C(=O)Nc1cc(S(=O)(=O)N2CCOCC2)ccc1Oc1ccc(F)cc1 (centres undefined)
→ 2, 1
69: COc1ccc(N2CCN(C(=O)CCN(Cc3ccco3)c3nc(Cc4cccc(OC)c4)ns3)CC2)cc1
→ -9, -11
70: CCCCN(CCCC(=O)OCC)CC(=O)N1CCSC1c1ccc(F)cc1 (centres undefined)
→ -4, 5
71: CCN(CC)C1CCN(c2nccc(C3CCCC3)n2)C1 (centres undefined)
→ -11, -15
72: Cn1ccsc1=NC(=O)CC12CC3CC(CC(Br)(C3)C1)C2
→ -1, -3
73: Oc1cccc(-c2nc3c(N4CCOCC4)nccc3[nH]2)c1
→ -4, -13
74: CCN(CC(=O)N1CCc2sccc2C1c1ccccc1C)C(=O)/C=C/c1ccccc1 (centres undefined)
→ -9, -4
75: COc1ccccc1OS(=O)(=O)CCS(=O)(=O)c1ccc(Cl)cc1
→ 4, 1
76: CNC(=O)CSc1ncc(-c2ccc(Cl)c(Cl)c2)n1Cc1ccccc1
→ -4, 0
77: CN(Cc1cccc(O)c1)C(=O)c1c[nH]c2ccccc2c1=O
→ -1, 6
78: O=c1c2ccccc2ncn1CCCCOc1ccc(OCc2ccccc2)cc1
→ -6, 14
79: O=C(Nc1cccc(CNc2ncnc3sccc23)c1)C1CCCO1 (centres undefined)
→ 5, 0
80: Cc1ccc(-n2nc(C)c(-c3ccccc3)c2NC(=O)CN(CC(C)C)C(=O)c2ccc(Cl)cc2)cc1
→ -2, 1
81: COCCN(CC(=O)N1CC(=O)N(c2ccc(Cl)cc2)C1)C(=O)CCc1ccccc1
→ 25, 28
82: O=C(c1cccc(C(F)(F)F)c1)C1CCCN(C(=O)c2cccc(-c3ncc[nH]3)c2)C1 (centres undefined)
→ 8, 8
83: NC(=O)c1nc(-c2ccccc2F)nc2c1[nH]c(=O)n2-c1ccccc1F
→ 0, -4
84: Nc1ncc2c(n1)CCOC2
→ 1, 1
85: CNC(=O)CC(C)N(C)Cc1ccncc1 (centres undefined)
→ -2, -6
86: CC12CS(=O)(=O)CC1SC(=S)N2Cc1ccccc1 (centres undefined)
→ 2, -1
87: CCC1c2ccsc2CCN1C(=S)NCCc1ccccc1 (centres undefined)
→ 3, 2
88: O=[N+]([O-])C1=CC=C2C(=NC3(CCCCC3)N2O)C1=NCc1ccccc1
→ -13, -19
89: CC1=NC2=C(C(=O)CCC2)C(c2cccc(O)c2)C1C(=O)OCCOc1ccccc1 (centres undefined)
→ -4, -11
90: CC(C)n1nccc1NC(=O)c1ccc(Br)o1
→ -7, -4
